# Tg IFNy HTS = blocks Toxoplasma gondii growth in the presence of IFN-gamma; activity change, negative = inhibition, %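 (about 20 µM by stock and volumes)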; AID 1259416; 69,000 tested, 3.8% active; Toxoplasma gondii growth in IFN-gamma-treated host cells; stronger effect = lower value; reference of the scale not given here;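 active = below -70%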;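 note: host cells are HeLa cells infected with Toxoplasma gondii; parasite growth read as luciferase light; one replicate is shown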
# Numbers without * were called inactive; & = joins results of further samples.
# Start of the listing, in advance, four compounds:
SMILES,Tg IFNy HTS
Cc1ccccc1NC(=O)c1cc2cccnc2n(Cc2ccc(F)cc2)c1=O,68
O=C(c1cccs1)C1CCCN(Cc2cc3n(n2)CCNC3)C1 (stereo unspecified),4
CCOC(=O)c1ncn2c1C1CCCN1C(=O)c1cc(OC)ccc1-2 (stereo unspecified),12
COCCN1CCN(C2CCOC2)Cc2ccc(C)nc21 (stereo unspecified),431

# The whole of this part (from the top)
SMILES,Tg IFNy HTS
Cc1ccccc1NC(=O)c1cc2cccnc2n(Cc2ccc(F)cc2)c1=O,68
O=C(c1cccs1)C1CCCN(Cc2cc3n(n2)CCNC3)C1 (stereo unspecified),4
CCOC(=O)c1ncn2c1C1CCCN1C(=O)c1cc(OC)ccc1-2 (stereo unspecified),12
COCCN1CCN(C2CCOC2)Cc2ccc(C)nc21 (stereo unspecified),431
c1ccc(N2CC3(CCN(Cc4cccnc4)C3)C2)nc1,-29
COc1ncccc1CN1C[C@H]2COC[C@@]2(C(=O)N(C)C)C1,3
C[C@H](Cc1ccc(OCC(=O)O)cc1)NC[C@H](O)c1cccc(Cl)c1,26&-23
CCN1C[C@H]2[C@H](OC)CCN(S(=O)(=O)c3cccnc3)[C@H]2C1,94
C[C@]12Cc3cn[nH]c3C[C@@H]1CC[C@@H]1[C@@H]2CC[C@@]2(C)[C@H]1CC[C@]2(C)O,-5
Cc1[nH]c2c(C)cccc2c1CC(=O)N(CCN(C)C)Cc1ccc(F)cc1,111
Cc1ccc(N2CCO[C@@H]3CN(CCO)CC[C@H]3C2)nn1,-1
Cn1nc(C2CNCCO2)c2cccnc21 (stereo unspecified),-8
Cc1nc2c(c(=O)[nH]1)C(c1ccc(Cl)cc1)c1c(c3ccccc3oc1=O)O2 (stereo unspecified),-25
COc1ccc(F)c(-c2ccc3c(c2)CNCC3)c1,37
Cc1ccc(-c2nc(C)sc2CC(=O)N(C)CCN2CCCCC2)cc1,24
Cn1ccnc1-c1ccc(N2C[C@@H]3C[C@@H](C2)c2cccc(=O)n2C3)nn1,-1
COc1cccc(CNC(=O)c2cc3cccnc3n(Cc3ccc(Cl)cc3)c2=O)c1,-47
CNC(=O)C1Cn2ccnc2C2(CCNCC2)O1 (stereo unspecified),53
CCC(C)C(=O)O[C@@H]1C[C@@]2(C)[C@H](c3ccoc3)OC(=O)CC23OC2(C)OC34[C@H](OC(=O)C(C)C)[C@@]3(O)[C@@H](OC(=O)C5(C)OC5C)[C@@]5(C)C[C@]3(O)[C@@](C)([C@H]5CC(=O)OC)C14O2 (stereo partly specified),17
CCO[C@@H]1C[C@@H]2CN(C(=O)Cc3ccccn3)CCN2C1,-50
O=C(c1ccoc1)N1CC[C@H]2[C@@H]1CCN2Cc1cccnc1,-16
FC(F)(F)c1cccc(N2CCNCC2)c1,6
CCOC(=O)C(C)Oc1cc(C)cc2oc(=O)c3c(c12)CCCC3 (stereo unspecified),21
Cc1ccc(NC(=O)c2cc3cccnc3n(Cc3ccccc3F)c2=O)cc1C,74
CC=Cc1ccc2n(c1=O)C[C@H]1[C@H](CO)[C@@H](C(=O)OC)[C@@H]2N1S(=O)(=O)c1ccccc1C (mixture of isomers),-16
# (next part)
SMILES,Tg IFNy HTS
Cn1cc(C(=O)c2ccc(F)cc2)c2ccnc(Cl)c21,-57
O=C(O)CCCN1CC=C(c2ccccc2)CC1,-25
COC(=O)[C@@H]1C[C@H](OC(C)=O)C(=O)[C@H]2[C@@]1(C)CC[C@H]1C(=O)O[C@H](c3ccoc3)C[C@]21C,20&20
CC(C)C(=O)N1CCCC2(CCCN2Cc2cccnc2)C1 (stereo unspecified),-7
O=C1CNC[C@@H]2[C@H](c3ccc(Br)cc3)[C@@H](CO)N12,30
COc1ccc(NC(=O)c2c(O)c3cccnc3n(Cc3ccccc3)c2=O)cc1Cl,144
C1CN2CCC1CC2,-39
Cc1cc(NC(=O)c2c(O)c3cccnc3n(Cc3ccccc3)c2=O)ccc1F,-24
CCn1nc(C)c(CNC(C)Cn2ccnc2)c1C (stereo unspecified),12
Cc1ccc(CN2[C@@H]3CC[C@H]2CN(C)C(=O)C3)s1,-36
Cc1ccc(C)c(NC(=O)c2c(O)c3cccnc3n(Cc3ccccc3)c2=O)c1,79
Cc1cc(C)c2c(CC(=O)N(C)CCN(C)C)coc2c1,-3
O=C(NC[C@@]12COC[C@@H]1CN(Cc1cccs1)C2)c1cccnc1,-63
COc1cccc(CC(C)NCc2n[nH]c3c2CCCCC3)c1 (stereo unspecified),8
COc1cc2c(cc1OC)[C@@H]1C(=O)c3ccc4c(c3O[C@@H]1CO2)CC(C(C)C)O4 (stereo partly specified),-82*
CS(=O)(=O)N1CCOC2(COCCN(Cc3ccncc3)C2)C1 (stereo unspecified),31
NCC(CC(=O)O)c1ccccc1 (stereo unspecified),-1
Fc1cnc(N2CCC3(CCCN3CC3CC3)CC2)nc1,4
COc1ccc2c(c1)CC1(CN2C)C(=O)NC(=O)N(CCc2ccccc2)C1=O (stereo unspecified),1
Cc1ccc(N2CCC3(CC2)C(=O)N(CCO)CCN3C)nn1,90
COc1ccc(NC(=O)c2cc3cccnc3n(Cc3ccccc3)c2=O)c(OC)c1,12
CN1C(=O)C(C(=O)/C=C/c2ccc(Br)cc2)C2CC1(C)Oc1ccc(Cl)cc12 (stereo unspecified),4

# As entered above.
# In Tg IFNy HTS, `COc1cccc(CC(C)NCc2n[nH]c3c2CCCCC3)c1` (stereo unspecified) shows 8
# In Tg IFNy HTS, `COc1ccc2c(c1)CC1(CN2C)C(=O)NC(=O)N(CCc2ccccc2)C1=O` (stereo unspecified) shows 1
# In Tg IFNy HTS, `COC(=O)[C@@H]1C[C@H](OC(C)=O)C(=O)[C@H]2[C@@]1(C)CC[C@H]1C(=O)O[C@H](c3ccoc3)C[C@]21C` shows 20&20
# In Tg IFNy HTS, `Cc1ccc(N2CCC3(CC2)C(=O)N(CCO)CCN3C)nn1` shows 90
# In Tg IFNy HTS, `COc1ccc(NC(=O)c2cc3cccnc3n(Cc3ccccc3)c2=O)c(OC)c1` shows 12
# In Tg IFNy HTS, `Fc1cnc(N2CCC3(CCCN3CC3CC3)CC2)nc1` shows 4
# In Tg IFNy HTS, `Cc1cc(C)c2c(CC(=O)N(C)CCN(C)C)coc2c1` shows -3

# Part of the list above in order of SMILES length, ascending.
SMILES,Tg IFNy HTS
C1CN2CCC1CC2,-39
NCC(CC(=O)O)c1ccccc1 (stereo unspecified),-1
CCn1nc(C)c(CNC(C)Cn2ccnc2)c1C (stereo unspecified),12
Fc1cnc(N2CCC3(CCCN3CC3CC3)CC2)nc1,4
CN1C(=O)C(C(=O)/C=C/c2ccc(Br)cc2)C2CC1(C)Oc1ccc(Cl)cc12 (stereo unspecified),4

# 2 entries from above, as tab-separated lines.
canonical_smiles	Tg IFNy HTS
C1CN2CCC1CC2	-39
Cc1ccc(CN2[C@@H]3CC[C@H]2CN(C)C(=O)C3)s1	-36

# Screening data (PubChem BioAssay)

# An excerpt (hit frequency here may not be typical).
